FGF22 binding: binders of human FGF22 protein, primary screen, FGF22 synaptogenesis inhibitor project, biophysical, thermal shift, single point; Fibroblast growth factor 22 (Homo sapiens), Q9HCT0; recombinant FGF22 thermal shift, SYPRO orange fluorescence; percent of sucrose octasulfate shift, DMSO zero; calls only at 9.99 µM; 340,000 tested, 1.5% active; AID 651658, 2012;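 active = melting point raised past a set limit in the mean and every replicate; three in four hits are not shown here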
E coli growth: E. coli growth inhibition, primary screen, OD600 | Escherichia coli growth, 23 h; stronger effect = lower value | OD600 absorbance (no concentration beside the values) | 330,000 tested, 0.21% active | AID 1053175, 2014;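 active = OD600 absorbance below the run mean of sample wells minus 3.6 SD, in any replicate, cut at about 0.56 in these data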;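 note: stock transfer was 300 nL into about 60 µL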
LANA-H2A inh: blockers of LANA interaction with H2A/H2B – biochemical, FP readout, HTS, primary screen | Protein LANA1 (Human herpesvirus 8 type P (isolate GK18)), Q9QR71 | cell-free LANA-H2A/H2B peptide, fluorescence polarization | inhibition, % (test concentration not listed) | 320,000 tested, 0.6% active | AID 2629, 2010; in the data active = inhibition mostly above about 10%, no sharp cut-off; inactive = mostly below about 6.7%;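 note: stock transfer was 7.5 nL into about 10 µL; 0% = median of vehicle wells and 100% = median of positive control wells; one replicate is shown; the record names a cut of 25% in any replicate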
HNF4A DNA FP: change in binding of human HNF4A to DNA, primary screen, biochemical, fluorescence polarization, FITC-DNA. Hepatocyte nuclear factor 4-alpha (Homo sapiens), P41235. 1 h. activity change, % at 10 µM. 360,000 tested, 0.3% active. AID 1224865, 2016; in the data active = activity change above about 30%, passing the limit was not always enough;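 note: controls were the assay level and a saturating level of protein; the project sought stronger binding though the title names inhibitors; some compounds called inactive have numbers as strong as hits; positive values seem to mean higher polarization but the record does not say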
Target sequence (P41235 whole entry, looked up): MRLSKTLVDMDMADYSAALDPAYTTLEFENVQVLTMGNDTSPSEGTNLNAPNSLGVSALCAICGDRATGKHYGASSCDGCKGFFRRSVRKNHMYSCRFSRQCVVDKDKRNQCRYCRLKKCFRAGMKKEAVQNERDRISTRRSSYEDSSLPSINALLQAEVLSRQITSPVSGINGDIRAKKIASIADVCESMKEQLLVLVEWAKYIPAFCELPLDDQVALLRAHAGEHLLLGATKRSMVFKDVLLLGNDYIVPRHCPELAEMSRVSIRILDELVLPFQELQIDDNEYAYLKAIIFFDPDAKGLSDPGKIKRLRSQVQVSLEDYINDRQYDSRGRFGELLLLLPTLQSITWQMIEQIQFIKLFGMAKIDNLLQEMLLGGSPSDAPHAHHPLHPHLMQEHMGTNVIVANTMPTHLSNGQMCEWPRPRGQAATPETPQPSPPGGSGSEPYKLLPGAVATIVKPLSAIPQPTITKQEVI
UCH37 DUB inh: inhibitors of human UCH37 deubiquitinase, primary screen, biochemical, Ub-AMC cleavage, fluorescence | 330,000 tested, 0.33% active | purified proteasome/UCH37 | AID 588478, 2011 | Ubiquitin carboxyl-terminal hydrolase isozyme L5 (Homo sapiens), Q9Y5K5 | inhibition, % (no concentration beside the values);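 active = mean of two replicates above 20%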;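 note: 0% = compound-free wells with enzyme and 100% = wells lacking proteasome; stock transfer was 100 nL into about 20 µL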
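Reagent: Ub-AMC substrate; assay system: Proteasome-associated human UCH37 deubiquitinase; controls: no-proteasome and no-compound wells; read-out: % inhibition of Ub-AMC cleavage fluorescence; timing: 30 min preincubation with enzyme, 25 min cleavage at room temperature; signal: AMC fluorescence from Ub-AMC cleavage, excitation 355 nm, emission 460 nm; buffer or medium: Tris-HCl pH 7.4 plus ovalbumin, ATP-MgCl2, DTT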
ALR H2O2 inh: inhibitors of human ALR sulfhydryl oxidase, primary screen, biochemical, H2O2 detection, HRP-luminol luminescence, single point; FAD-linked sulfhydryl oxidase ALR (Homo sapiens), P55789; purified ALR, DTT oxidation; inhibition, % (concentration not given with the values); 290,000 tested, 3.8% active; AID 485317, 2010;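 active = mean and each replicate at 75% or more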;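 note: stock transfer was 7.5 nL into about 7.5 µL; 0% = neutral wells and 100% = wells with inactivated enzyme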
Target sequence (P55789 whole entry, looked up): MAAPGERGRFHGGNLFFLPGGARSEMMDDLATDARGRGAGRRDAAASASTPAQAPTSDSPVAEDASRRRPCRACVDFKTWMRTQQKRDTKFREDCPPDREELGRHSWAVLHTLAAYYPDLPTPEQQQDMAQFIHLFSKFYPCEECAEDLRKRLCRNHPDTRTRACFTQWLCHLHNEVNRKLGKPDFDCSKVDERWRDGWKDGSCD
Beta2AR agonist: beta2AR agonists driving receptor internalization, primary screen, cell-based, FAP fluorogen, flow cytometry; Beta-2 adrenergic receptor (Homo sapiens), P07550; Am2.2-beta2AR cells; reference of the scale not given here; response, % (no concentration beside the values); 340,000 tested, 0.43% active; AID 504454, 2011;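 active = response above a set limit, near 3 SD of response in nonfluorescent compounds, cut at about 42% in these data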;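 note: stock transfer was 100 nL into about 11 µL; a reference agonist was the positive control; negative values mostly stem from fluorescent compounds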
Target sequence (P07550 whole entry, looked up): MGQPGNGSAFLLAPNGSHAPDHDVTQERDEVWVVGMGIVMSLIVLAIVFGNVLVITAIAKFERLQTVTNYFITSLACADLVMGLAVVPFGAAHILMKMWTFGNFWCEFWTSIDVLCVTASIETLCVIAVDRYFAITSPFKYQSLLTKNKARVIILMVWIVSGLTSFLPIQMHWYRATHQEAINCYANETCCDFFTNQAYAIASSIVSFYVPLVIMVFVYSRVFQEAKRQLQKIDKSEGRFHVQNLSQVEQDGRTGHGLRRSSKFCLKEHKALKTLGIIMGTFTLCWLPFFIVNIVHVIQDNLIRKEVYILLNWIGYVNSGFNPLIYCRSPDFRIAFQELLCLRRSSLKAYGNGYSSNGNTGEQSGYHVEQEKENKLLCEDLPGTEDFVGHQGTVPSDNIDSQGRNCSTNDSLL
* = called active by the depositor; i = inactive; nt = not tested or not shown. An excerpt (hit frequency here may not be typical).

Below each SMILES: ALR H2O2 inh | E coli growth | Beta2AR agonist | LANA-H2A inh | UCH37 DUB inh | FGF22 binding | HNF4A DNA FP
(1) CCN1C[C@@H]2[C@@H]3C(=O)N(C)C(=O)[C@@H]3[C@](Cc3ccccc3)(C(=O)OC)N2C1=NCc1ccccc1
  nt | 0.7 | -1 | nt | 2.0 | i | 3.0
(2) COC(=O)CSc1nnc(-c2ccco2)n1Cc1ccco1
  -1 | 0.7 | 8 | -0.4 | 1.0 | nt | -2.0
(3) O=C(NCc1cccs1)c1cc(-c2cccc(Cl)c2)on1
  -14 | 0.69 | -2 | -3.6 | 4.6 | nt | 4.5
(4) Cc1cc(Cl)ccc1OCCCC(N)=O
  nt | 0.66 | 2 | -5.6 | 3.2 | nt | -1.4
(5) CC(=O)Nc1ccc(S(=O)(=O)n2cnc3cc(C)c(C)cc32)cc1
  22 | 0.68 | -5 | -4.1 | 4.8 | nt | 0.1
(6) CC(=O)Nc1ccc(NC(=O)COc2ccc3c(c2)CCC3)cc1
  nt | 0.65 | -3 | -5.0 | 3.5 | i | -3.3
(7) Cc1cc(NC(=O)NCc2ccccc2)c(=O)n(Cc2ccccc2F)c1
  nt | 0.67 | 0 | 3.1 | -26 | i | 3.8
(8) COc1ccc(C)cc1NC(=O)c1[nH]c(C)c(C(C)=O)c1C
  -8 | 0.68 | -2 | -2.3 | 0.7 | nt | 3.9
(9) O=C(CSc1nc2ccccc2s1)N1c2ccccc2Sc2ccc(C(F)(F)F)cc21
  nt | 0.74 | 0 | 0.7 | 3.4 | nt | -1.1
(10) COc1ccc(-n2ncc3c2CC(C)(C)CC3NC(=O)CCC2=NNC(=O)CC2)cc1 (stereo unspecified)
  -5 | 0.66 | 10 | -3.1 | 4.1 | i | 0.0
(11) Cc1ccc(S(=O)(=O)Nc2ccc3oc(=O)sc3c2)c(C)c1
  3 | 0.79 | 4 | 0.9 | 1.3 | nt | 0.0
(12) Cc1ccc(C(=O)Nc2ccc3c(c2)OCCO3)o1
  -15 | 0.62 | -4 | -7.8 | 1.6 | i | 0.7
(13) CCc1cc(=O)oc2c(C)c(OCC(=O)NCCCN3CCCC3=O)ccc12
  1 | 0.64 | -7 | -1.2 | -35 | i | 1.4
(14) CN(C)C(CNC(=O)CSC(=S)N1CCCC1)c1ccccc1 (stereo unspecified)
  -3 | 0.72 | 9 | -0.7 | 4.3 | i | 5.5
(15) C=CCn1cc(C(=O)N2CCN(c3ccccc3)CC2)c(=O)c2cc(S(=O)(=O)N3CCCC3)ccc21
  17 | 0.66 | -2 | 4.0 | 2.6 | i | 2.4
(16) CS(=O)(=O)N(CC(=O)Nc1ccc2c(c1)OCCO2)Cc1ccccc1
  -1 | 0.73 | -9 | -3.1 | 3.0 | nt | 2.0
(17) Cc1cc(-n2c(C)cc(C(=O)COc3ccc(Cl)cc3C(N)=O)c2C)no1
  -4 | 0.71 | 11 | 4.5 | 2.5 | i | 2.3
(18) O=C(Nc1c2c(nn1-c1ccccc1)CS(=O)(=O)C2)c1ccc2c(c1)OCO2
  -4 | 0.71 | -2 | -1.9 | 1.2 | i | -1.4
(19) CC1CCN(Cc2c(C(=O)N/N=C/c3cc(Br)ccc3O)nnn2-c2nonc2N)CC1
  nt | nt | 2 | -1.8 | nt | i | 1.6
(20) Nc1nc(Nc2ccc(Cl)cc2)nc(NCCO)c1[N+](=O)[O-]
  -4 | nt | -5 | 0.8 | nt | i | -1.4
(21) COc1ccc(C)cc1NC(=O)CN1CCN(C/C=C/c2ccccc2)CC1
  -1 | 0.62 | 7 | -2.6 | 1.7 | nt | 1.2
(22) O=C(NCCCN1CCCC1)Nc1ccccc1[N+](=O)[O-]
  -22 | 0.7 | -10 | 2.4 | 2.6 | i | 0.2
(23) COc1cccc(COC(=O)CCNC(=O)c2ccc(Br)cc2)c1OC
  1 | 0.64 | 2 | -2.8 | 2.1 | i | 2.6
(24) CCCc1cc(=O)[nH]c(SCc2cc(C(=O)OC)c(C)o2)n1
  49 | 0.76 | -1 | 5.2 | 2.5 | nt | -15
(25) O=C1c2cccc3cccc(c23)C(=O)N1Cc1ccccc1
  3 | 0.68 | 1 | -1.4 | -81 | i | 2.5
(26) CCOC(=O)C1CCN(C(=O)COc2cc(C)c(Br)c(C)c2)CC1
  -1 | 0.7 | -5 | 3.1 | -2.4 | nt | -0.9
(27) CCN1CCN(C(=O)C2(NC(=O)Nc3cccc(F)c3)CCCCC2)CC1
  -11 | 0.7 | -5 | 1.5 | 0.9 | nt | -2.3
(28) C=CCNC(=O)c1onc(CSc2cc(C)cc(C)c2)c1C(=O)NCC=C
  2 | 0.69 | -7 | 3.3 | 0.1 | nt | 1.4
(29) N#CCc1nc2ccc(S(=O)(=O)N3CCOCC3)cc2s1
  29 | 0.65 | 1 | -4.0 | 2.4 | i | 52*
(30) Cc1nnc(Nc2ccc(F)cc2)c2ccccc12
  13 | 0.67 | -7 | 1.6 | 1.2 | i | -2.3
(31) CC(C)c1ccc(NC(=O)CCNS(=O)(=O)c2ccc3[nH]c(=O)oc3c2)cc1
  -10 | 0.66 | 8 | -1.1 | 1.1 | i | 1.2
(32) Cc1ccc(NC(=O)COC(=O)Cc2c(F)cccc2Cl)cc1S(=O)(=O)N1CCOCC1
  0 | 0.66 | -5 | -2.1 | 3.0 | i | -0.6
(33) Cc1cccc(CSC2=NCCN2S(=O)(=O)c2ccc(F)cc2)c1
  -5 | 0.68 | -5 | -0.4 | 4.6 | i | 4.7
(34) N#CCC(=O)N1CCN(C(c2ccccc2)c2ccccc2)CC1
  3 | 0.63 | -4 | -0.7 | 1.4 | i | 1.2
(35) Cc1nc2c(-c3ccccc3)c(C)nn2c(C)c1CC(=O)O
  1 | 0.67 | 3 | 3.8 | 2.0 | nt | -0.2
(36) CCSC1=NC(C)(C)C=C(C)N1
  -20 | 0.73 | 4 | -6.2 | 0.4 | nt | -1.4
(37) O=C(Nc1ccc(Cl)c(Cl)c1)N1CC=CCC1
  -11 | 0.7 | -5 | 1.7 | 5.5 | nt | 3.1
(38) O=c1c2oc3nc4c(cc3c2ncn1CCCc1ccccc1)CCCC4
  -3 | 0.67 | -14 | 5.3 | 3.1 | i | -0.7
(39) O=S(=O)(c1ccc(Cl)cc1)N1CCCC1c1nc(-c2cccc(Cl)c2)no1 (stereo unspecified)
  -13 | 0.74 | 1 | -1.4 | 2.7 | nt | 0.8
(40) CC(/C=N/NC(=O)COc1ccccc1C)=N\NC(=O)COc1ccccc1C
  0 | nt | -5 | -3.8 | nt | i | -2.2
(41) Cc1ccc(C)c(NC(=O)CN(C)C(=O)/C=C/c2ccco2)c1
  -2 | 0.66 | 5 | 1.9 | 5.8 | i | 4.5
(42) COC(=O)c1ccc(C(=O)NCCCCO)cc1
  -1 | 0.64 | -5 | -1.6 | 0.1 | i | 1.8
(43) CS(=O)(=O)N(CC(=O)N1CCCCC1)c1cccc(F)c1
  -1 | 0.66 | 4 | -1.1 | 3.3 | i | 2.9
(44) CCCCCCn1c(=O)c(C(=O)N/N=C/c2cccc(F)c2)c(O)c2ccccc21
  -4 | nt | 5 | -1.7 | nt | i | -0.2
(45) Cc1ccc2nc(C3CCN(S(=O)(=O)c4ccc5ccccc5c4)CC3)[nH]c2c1
  -9 | 0.67 | -9 | -1.6 | 4.1 | nt | 0.8
(46) COc1ccc(C(=O)NCCN2CCN(C(=O)c3ccc(OC)cc3)CC2)cc1
  -13 | 0.72 | 1 | -6.3 | -3.7 | i | 1.8
(47) CCN(c1ccccc1)S(=O)(=O)c1ccc(C(=O)NC2CCN(Cc3ccccc3)CC2)cc1
  -7 | 0.7 | -5 | -6.8 | 2.6 | nt | 0.3
(48) NC(=O)CN1CCN(c2cccc(Cl)c2)CC1
  16 | 0.68 | -4 | -1.9 | 5.7 | i | 2.2
(49) CC(C)CNC(=O)c1cccc(NC(=O)COc2cccc([N+](=O)[O-])c2)c1
  -5 | 0.7 | -2 | 0.7 | 2.3 | i | 3.8
(50) COc1ccc(C(=O)CSc2nnc(CN3CCCCC3)n2-c2ccc(F)cc2)cc1OC
  12 | 0.68 | 3 | 0.9 | 0.0 | nt | 1.0
(51) CCOc1ccc(OCCCC(=O)Nc2cc(Cl)ccc2-n2cncn2)cc1
  -1 | 0.68 | -5 | 4.2 | 0.3 | i | -3.4
(52) COc1ccc(N(CC(=O)Nc2ccc3c(c2)OCO3)S(=O)(=O)c2ccccc2)cc1
  -1 | 0.71 | -5 | -2.8 | 1.8 | i | -4.0
(53) CCCc1[nH]c2ccc(C#N)cc2c1CCC
  97* | nt | 18 | 0.6 | nt | i | 0.6
(54) O=C(NC1CC1)C1=C[C@H](c2ccc3c(c2)OCO3)C[C@H](OCc2ccc(CO)cc2)O1
  nt | nt | -10 | -0.7 | -1.2 | i | 10
(55) O=C(c1ccc(OC2CCN(CCc3ccccc3)CC2)cc1)N1CCC(CO)CC1
  -14 | 0.7 | -7 | -2.5 | 1.5 | i | -1.0
(56) Cc1ccccc1OCCCCn1c(CO)nc2ccccc21
  -70 | 0.67 | 0 | 3.4 | 2.5 | i | -1.2
(57) Cc1cc([N+](=O)[O-])nn1CCCC(=O)Nc1cc(Oc2ccccc2)cc([N+](=O)[O-])c1
  -11 | 0.68 | -3 | 2.5 | 5.4 | nt | 2.9
(58) COc1cc(C(O)P(=O)(OCC(C)C)c2ccc(N(C)C)cc2)cc(OC)c1OC (stereo unspecified)
  2 | 0.68 | -4 | -0.9 | 2.5 | i | 4.7
(59) CCOC(=O)Cc1csc(NC(=O)c2cc(-c3ccncc3)nc3ccccc23)n1
  -4 | 0.7 | 25 | -1.5 | 6.8 | i | 5.2
(60) Cc1ccc(/C=C2\SC(=S)N(CCCC(=O)Nc3ccccn3)C2=O)cc1
  -12 | 0.72 | nt | -5.7 | 7.5 | nt | -0.6

(list continues)
Below each SMILES: ALR H2O2 inh | E coli growth | Beta2AR agonist | LANA-H2A inh | UCH37 DUB inh | FGF22 binding | HNF4A DNA FP
(61) CC(=O)c1sc(=S)n(-c2ccc(Cl)cc2)c1C
  -4 | 0.66 | -7 | 2.8 | 8.0 | i | 0.5
(62) O=C(O)c1cccnc1SC1CC(=O)N(c2cccc3ccccc23)C1=O (stereo unspecified)
  nt | 0.64 | nt | -1.6 | 3.1 | nt | nt
(63) CCN(CC(=O)Nc1ccc(C)c(S(=O)(=O)N2CCOCC2)c1)Cc1ccccc1
  nt | 0.58 | 2 | 0.2 | 1.6 | nt | -1.9
(64) Cn1c(SCC(=O)c2cccs2)nnc1-c1ccco1
  40 | 0.69 | -8 | 6.6 | 2.7 | i | -0.9
(65) COc1ccc(OCC(=O)Nc2ccc(Cl)cc2)cc1
  0 | 0.69 | -9 | -2.9 | 6.4 | i | 7.9
(66) COC(=O)c1cccc(NC(=O)c2cccc([N+](=O)[O-])c2)c1
  39 | 0.63 | -5 | 0.9 | 0.7 | i | 2.4
(67) O=C(C1CCCN(S(=O)(=O)Cc2ccccc2)C1)N1CCC(Cc2ccccc2)CC1 (stereo unspecified)
  -4 | 0.72 | -4 | 0.9 | 4.0 | nt | -4.0
(68) Cc1cccc(-n2c(SCc3cc(=O)n4c(C)cccc4n3)nc3[nH]ncc3c2=O)c1
  -4 | 0.68 | nt | 7.0 | 3.8 | nt | nt
(69) Cc1ccccc1Cn1c(=O)sc2ccccc2c1=O
  -11 | 0.67 | -9 | -4.4 | 4.5 | nt | 1.5

Bioassay records (PubChem BioAssay)
